From PubChem BioAssay
MLL AF4-AF9 inh: inhibitors of AF4 peptide binding to AF9, primary screen, biochemical, AlphaScreen, biotin-AF4 peptide, FLAG-AF9, single point; Protein AF-9 (Homo sapiens), P42568; inhibition, % at 10 µM; 350,000 tested, 0.47% active; AID 651704, 2012;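 active = every replicate reaching a set inhibition limit, whatever the replicate mean, cut at about 25% in these data; inconclusive = mean inhibition reaches that limit but some replicates miss it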;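 also: 0% = plate neutral control median and 100% = total signal loss; the record names both 10 and 1 µM as test concentration; the first replicate is given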
FGF22 binding: binders of human FGF22 protein, primary screen, FGF22 synaptogenesis inhibitor project, biophysical, thermal shift, single point | Fibroblast growth factor 22 (Homo sapiens), Q9HCT0 | calls only at 9.99 µM | 340,000 tested, 1.5% active | recombinant FGF22 thermal shift, SYPRO orange fluorescence; percent of sucrose octasulfate shift, DMSO zero | AID 651658, 2012;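 active = melting point raised past a set limit in the mean and every replicate; inconclusive = no clear call; three in four hits are not shown here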
Target sequence (Q9HCT0 whole entry, looked up): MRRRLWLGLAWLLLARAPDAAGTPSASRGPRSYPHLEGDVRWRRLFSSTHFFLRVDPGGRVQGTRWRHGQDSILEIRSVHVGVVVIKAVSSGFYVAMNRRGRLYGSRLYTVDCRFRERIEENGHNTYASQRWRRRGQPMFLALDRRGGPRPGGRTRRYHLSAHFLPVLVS
E coli growth: E. coli growth inhibition, primary screen, OD600; Escherichia coli growth, 23 h; hits give low values; OD600 absorbance (concentration not given with the values); 330,000 tested, 0.21% active;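 active = OD600 absorbance below the run mean of sample wells minus 3.6 SD, in any replicate, cut at about 0.56 in these data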;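 also: stock transfer was 300 nL into about 60 µL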
Ecoli rRNA inh: reduced GFP signal of wild-type E. coli, primary screen, bacterial rRNA inhibitor project, GFP/RFP fluorescence, OD600, single point. E. coli WT GFP vs humanized-ribosome RFP mutants, 24 h; hits give low values; DMSO median 0, no signal -100. GFP signal change (wild-type ribosome), % (test concentration not listed). 350,000 tested, 1.6% active;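 active = significant combined selectivity score with lowered wild-type GFP, culture density cut under 30%, mutant RFP and density less affected; inactive = any of these conditions unmet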; also: one replicate is shown; some compounds called inactive have numbers as strong as hits
HNF4A DNA FP: change in binding of human HNF4A to DNA, primary screen, biochemical, fluorescence polarization, FITC-DNA. Hepatocyte nuclear factor 4-alpha (Homo sapiens), P41235. 1 h. activity change, % at 10 µM. 360,000 tested, 0.3% active; in the data active = activity change above about 30%, passing the limit was not always enough;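 also: controls were the assay level and a saturating level of protein; the project sought stronger binding though the title names inhibitors; some compounds called inactive have numbers as strong as hits; positive values seem to mean higher polarization but the record does not say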
Target sequence (P41235 whole entry, looked up): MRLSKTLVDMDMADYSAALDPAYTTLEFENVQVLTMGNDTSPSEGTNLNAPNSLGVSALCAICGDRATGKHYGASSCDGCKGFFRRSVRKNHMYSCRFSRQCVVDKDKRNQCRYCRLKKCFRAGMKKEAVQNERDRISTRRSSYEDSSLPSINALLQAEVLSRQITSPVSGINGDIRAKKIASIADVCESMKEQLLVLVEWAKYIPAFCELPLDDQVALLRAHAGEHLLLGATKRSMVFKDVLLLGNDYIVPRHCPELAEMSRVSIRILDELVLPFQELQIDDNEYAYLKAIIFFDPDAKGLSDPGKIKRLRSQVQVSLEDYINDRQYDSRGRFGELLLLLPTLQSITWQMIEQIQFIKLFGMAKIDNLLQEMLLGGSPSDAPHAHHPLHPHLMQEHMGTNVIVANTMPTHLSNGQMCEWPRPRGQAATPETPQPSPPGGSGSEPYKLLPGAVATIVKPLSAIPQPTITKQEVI
ALR H2O2 inh: inhibitors of human ALR sulfhydryl oxidase, primary screen, biochemical, H2O2 detection, HRP-luminol luminescence, single point | inhibition, % (test concentration not listed) | AID 485317, 2010 | 290,000 tested, 3.8% active | purified ALR, DTT oxidation | FAD-linked sulfhydryl oxidase ALR (Homo sapiens), P55789;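 active = mean and each replicate at 75% or more; inconclusive = only one of the two met; inactive = neither met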;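 also: stock transfer was 7.5 nL into about 7.5 µL; 0% = neutral wells and 100% = wells with inactivated enzyme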
Target sequence (P55789 whole entry, looked up): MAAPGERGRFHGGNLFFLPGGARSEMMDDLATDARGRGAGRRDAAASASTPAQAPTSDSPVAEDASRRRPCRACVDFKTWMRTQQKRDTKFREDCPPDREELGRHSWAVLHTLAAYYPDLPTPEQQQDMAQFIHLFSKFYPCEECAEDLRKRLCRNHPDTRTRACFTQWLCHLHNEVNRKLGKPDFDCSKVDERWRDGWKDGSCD
Vif TR-FRET: inhibitors of Vif binding to APOBEC3G peptide, primary screen, biochemical, TR-FRET, GST-Vif 1-94, biotin-A3G peptide, dose response retest (AID 1117319). TR-FRET GST-Vif / biotin-A3G peptide binding; higher % means a stronger effect; test concentration not given here; strong numbers were not always called active. one-dose inhibition, %; IC50 in µM for titrated hits. 260,000 tested, 0.57% active;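 active = above the screen mean plus three standard deviations and confirmed in dose response; inconclusive = results disagree or hit not tested in dose response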;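 also: Vif residues 1-94 fused to GST binding biotinylated APOBEC3G peptide 110-148; 0% = full assay without inhibitor and 100% = GST in place of GST-Vif; retest series ran down from 100 µM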
Ecoli rRNA inh OD600: recorded beside Ecoli rRNA inh, whose call it bears; OD600 change, %; measured here: OD600 growth;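 optical density of the mix in the first replicate; 0 = DMSO median and -100 = no signal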
Ecoli rRNA inh RFP: also measured in Ecoli rRNA inh; calls as there; RFP signal change, %; measured here: RFP humanized mutant strains;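 first replicate; 0 = DMSO median and -100 = no signal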
* = called active by the depositor; i = inactive; ? = inconclusive; . = no result given.

Results follow in this order: ALR H2O2 inh, Ecoli rRNA inh OD600, MLL AF4-AF9 inh, Ecoli rRNA inh, Vif TR-FRET, HNF4A DNA FP, E coli growth, FGF22 binding, Ecoli rRNA inh RFP
> O=C(C[C@@H]1C[C@H]2c3cc(NC(=O)NC4CCCCC4)ccc3O[C@H]2[C@@H](CO)O1)NCc1ccccn1
    ., 7, -0.5, 0, ., ., ., i, -0.4
> CSc1ncccc1C(=O)Nc1nccs1
    ., 8, 0.8, 4, -2%, -0.5, 0.67, i, -2.0
> O=C(CCNS(=O)(=O)c1ccccc1F)NC1CCCCCC1
    -1, 9, ?, 5, -4%, -2.7, 0.69, i, -2.0
> Cc1ccc(N/N=C/C=C/c2ccco2)cc1
    7, 5, -0.3, -2, ., 6.7, ., i, 3.3
> C[C@H](CO)N1C[C@H](C)[C@@H](CN(C)C(=O)NC2CCCCC2)Oc2c(NS(=O)(=O)c3ccc(F)cc3)cccc2C1=O
    -2, 7, 1.8, -5, ., -5.3, 0.76, i, 3.6
> O=C(Nc1cc([N+](=O)[O-])ccc1N1CCCC1)c1cccs1
    -2, -1, 0.1, 0, ., 3.8, 0.69, i, 1.3
> c1ccc(-c2nn3c(-c4ccccc4)nnc3s2)cc1
    -1, ., ., ., 7%, 2.3, 0.73, ., .
> CCC1CCCCN1C(=O)COc1ccc2c3c(c(=O)oc2c1)CCC3 (stereo not drawn)
    ., -2, -1.1, -9, ., -2.1, 0.69, i, 1.1
> Cc1ccccc1NC(=O)C1CCN(C2=NS(=O)(=O)c3ccccc32)CC1
    9, 3, -0.8, 8, -11%, 0.1, 0.65, i, -2.0
> C[C@@H]1CN([C@H](C)CO)C(=O)Cc2cc(NC(=O)Nc3cccc4ccccc34)ccc2O[C@@H]1CN(C)Cc1ccc(Oc2ccccc2)cc1
    ., 4, 0.3, 4, ., ., ., i, 0.0
> COc1ccc(C(O)c2nc(-c3ccc(OC)nc3)cs2)cc1 (stereo not drawn)
    ., 8, -1.4, 2, ., 0.2, ., i, -3.4
> COc1ccc(F)cc1S(=O)(=O)N1CCCCC1
    -7, 5, 0.8, 6, 1%, -4.0, 0.68, i, 1.1
> CC1(C(=O)Nc2ccc3c(c2)OCCO3)CSCC(=O)N1CCc1ccccc1F (stereo not drawn)
    ., -24, 2.8, -22, ., 2.1, ., i, 0.6
> O=C1c2ccccc2NC2(CCCCC2)N1N=C1CCCCC1
    -6, -16, 2.0, 1, -8%, 0.7, 0.69, i, -5.9
> COc1cc(CNC(C)(C)C)cc(Br)c1OCc1cccs1
    0, ., ., ., 17%, 0.6, 0.67, ., .

An excerpt from above, reduced to Ecoli rRNA inh RFP:
Molecule	Ecoli rRNA inh RFP
COc1ccc(F)cc1S(=O)(=O)N1CCCCC1	1.1
CCC1CCCCN1C(=O)COc1ccc2c3c(c(=O)oc2c1)CCC3 (stereo not drawn)	1.1

(continued)
Results follow in this order: ALR H2O2 inh, Ecoli rRNA inh OD600, MLL AF4-AF9 inh, Ecoli rRNA inh, Vif TR-FRET, HNF4A DNA FP, E coli growth, FGF22 binding, Ecoli rRNA inh RFP
> Cn1cnc(S(=O)(=O)N[C@H]2CC[C@H](CC(=O)NCC3CCCCC3)O[C@@H]2CO)c1
    ., 14, -14, 1, ., ., ., i, -0.5
> Cc1nn(C)c(C)c1S(=O)(=O)N1CCc2ccccc21
    -11, ., ., ., -1%, -3.1, 0.76, ., .
> COC(CN(C)C(=O)c1ccc(CS(=O)(=O)c2ccccc2C)o1)OC
    -6, 12, -2.2, 6, -3%, -0.3, 0.68, i, -0.9
> C[C@H](CO)N1C[C@H](C)[C@@H](CN(C)CC2CCCC2)Oc2cc(Br)ccc2S1(=O)=O
    ., -14, -0.5, -1, ., ., ., i, -1.4
> O=C(/C(=C(\O)c1ccccc1)c1nc2ccccc2[nH]1)c1ccccc1
    -8, 2, 2.7, 5, 6%, -5.1, 0.66, i, -0.8
> Cc1csc(NC(=O)CCc2c(C)nc3cc(-c4cccc(F)c4)nn3c2C)n1
    ., -1, 0.7, 0, -9%, -0.8, 0.72, i, 0.1
> COc1ccc(-c2ccc3[nH]c4c(c3c2)CCN2C[C@@H]([C@H](C)OC(=O)Nc3cc(Cl)cc(Cl)c3)[C@@H](N(C)C(=O)Nc3cc(Cl)cc(Cl)c3)C[C@@H]42)cc1
    ., 15, -4.0, -1, -3%, 22, ., i, 2.8
> C=CC[n+]1c(-c2ccc(Cl)cc2Cl)csc1Nc1c(C)n(C)n(-c2ccccc2)c1=O
    94*, -78, 19, -49, 24%, -17, 0.7, i, -13
> COc1ccccc1OCc1csc(NC(=O)c2ccco2)n1
    -3, ., ., ., 10%, -1.3, 0.65, ., .
> Cc1ccc(S(=O)(=O)N2Cc3ccccc3CC2C(=O)NC(C)(C)C)cc1 (stereo not drawn)
    -1, -25, -2.1, -13, ., -4.0, 0.67, i, -5.7
> Cc1cccc(C(=O)NC(=S)Nc2ccc(S(=O)(=O)N(C)c3ccccc3)cc2)c1
    ., ., ., ., 7%, -2.2, 0.76, ., .
> COc1ccc(N2C(=O)CSC2c2ccccc2[N+](=O)[O-])cc1 (stereo not drawn)
    99*, 0, 4.4, 2, ., 0.7, 0.66, i, 1.9
> CC(=O)c1ccc(NC(=O)COC(=O)c2ccccc2Sc2ccccc2C#N)cc1
    -10, 8, -1.1, 9, -48%, 1.5, 0.75, i, 4.2
> c1cnc2nc(CSc3ncn[nH]3)cn2c1
    -2, 10, -1.5, 13, 6%, -1.2, 0.63, i, -1.0
> CN(C)c1ccc2c(=O)c3ccccc3oc2n1
    ., 4, 1.2, -2, ., 1.2, ., i, -3.7
> CCOc1ccc(NC(=O)C2C3CCC4C(CCC32)C4(Cl)Cl)cc1 (stereo not drawn)
    -4, -12, -0.7, -13, -5%, 1.9, 0.71, i, -3.1
> Cc1noc(NS(=O)(=O)c2ccc(N/C=C\C(=O)c3ccc4c(c3)OCO4)cc2)c1C
    63, ., ., ., 3%, -2.3, 0.66, ., .
> CN(C)C(=O)C[C@H]1C[C@@H]2c3cc(NC(=O)Nc4ccccc4F)ccc3O[C@@H]2[C@H](CO)O1
    ., -3, -0.2, -2, ., ., ., i, -1.9
> COc1ccc(/C(N)=N/OC(=O)COc2ccccc2Cl)cc1
    -4, 3, -3.4, 11, 0%, 1.2, 0.66, i, 8.0
> COc1ccc(C2C3=C(CC(C)(C)CC3=O)Nc3c2c(=O)n(C)c(=O)n3C)cc1OC (stereo not drawn)
    22, -8, -2.3, 2, ., -0.9, 0.72, i, -3.7
> Cc1noc(C)c1NC(=O)N[C@H]1CC[C@H](CCNC(=O)C2CCOCC2)O[C@@H]1CO
    ., 4, -20, 1, ., ., ., i, -1.9
> COc1ccccc1CNC(=O)C1(C)CCN1C(=O)Cc1ccc(-c2ccccc2)cc1 (stereo not drawn)
    ., -60, 2.7, -33, ., -3.4, ., i, 0.5
> CC(C)C[C@@]12C(=O)N(c3cccc(F)c3)C(=O)N1[C@H](c1ccc(F)cc1)[C@@H]1C(=O)N(C3CCCCC3)C(=O)[C@@H]12
    -4, 0, 0.5, 3, ., 3.1, ., i, 0.6
> CCOC(=O)[C@]12CCC=C1N(Cc1ccccc1)C(=O)[C@H](CC(=O)NCc1ccc(C)o1)C2
    ., 5, -0.1, 1, ., -0.5, ., i, 3.6
> CCCCCC(=O)OC(CN1CCCCCC1)CN1CCCC1=O (stereo not drawn)
    -14, 7, -1.3, 4, 18%, -0.5, 0.66, i, -0.7
> N=C1S/C(=C\c2ccccc2F)C(=O)N1c1ccc(F)cc1
    8, 4, 0.9, 2, ., -1.7, ., i, 1.6
> CCC(C)C(NC(=O)C(Cc1ccc(O)cc1)NC(=O)OCc1ccccc1)C(=O)OC (stereo not drawn)
    ., -10, -0.1, 1, ., 14, ., i, 2.7
> O=C1CC(c2ccc(F)c(Br)c2)C2=C(CCCC2=O)N1 (stereo not drawn)
    -1, ., ., ., 1%, 0.6, 0.76, ., .
> CO[C@H]1CN(C)C(=O)c2ccc(NC(=O)C3CC3)cc2OC[C@@H](C)N(CCc2ccccc2)C[C@@H]1C
    ., -16, 5.6, -4, ., ., ., i, 2.3
> CC1CCCCC1NC(=O)c1cccc(S(=O)(=O)N2CCN(C)CC2)c1 (stereo not drawn)
    -8, 9, -0.3, 4, 0%, -1.3, 0.66, i, 2.3
> C[C@H]1CN([C@@H](C)CO)C(=O)c2cc(C3=CCCC3)cnc2O[C@H]1CN(C)C(=O)Nc1ccc(C(F)(F)F)cc1
    ., -4, 1.8, -4, ., ., ., i, 6.4
> Cc1noc(C)c1NC(=O)N[C@@H]1C=C[C@@H](CC(=O)Nc2ccccc2)O[C@@H]1CO
    ., 3, -0.9, 2, ., ., ., i, 0.2
> O=C(CCCN1C(=O)c2ccccc2C1=O)N1CCC(c2ccccc2)C1 (stereo not drawn)
    -3, ., ., ., ?, 5.5, 0.73, ., .
> COc1ccc(NC(=O)CCOc2ccccc2)c(OC)c1
    -5, ., ., ., -8%, -2.1, 0.68, ., .
> C=CCn1cc(/C=N\NC(=O)c2cc3c(ccc4ccccc43)o2)c2ccccc21
    0, ., ., ., -2%, 3.3, ., ., .
> CCCCn1c(-c2ccncc2)nc2c1c(=O)[nH]c(=O)n2CC(C)C
    -18, ., ., ., -11%, -4.7, 0.68, ., .
> COc1cc(OC)cc(C(=O)NNC(=O)C2CSC3(C)CCC(=O)N23)c1 (stereo not drawn)
    -1, 12, -3.8, 5, 2%, 0.3, 0.65, i, 0.9
> CC(=O)[C@@H]1[C@@H](C(=O)c2ccc(C)cc2)[C@]2(C(=O)Nc3ccccc32)[C@H]2C=Cc3cc(F)ccc3N12
    -2, ., 13, ., ., 19, 0.7, ., .
> COc1ccc(CN(C)C[C@@H]2OCCCC[C@H](C)Oc3ccc(NC(=O)Nc4c(C)noc4C)cc3C(=O)N([C@@H](C)CO)C[C@H]2C)cc1
    ., -1, -1.0, 2, ., ., ., i, -1.9
> C[C@H](CO)N1C[C@H](C)[C@@H](CN(C)S(=O)(=O)c2ccc(Cl)cc2)Oc2ccc(NC(=O)Nc3cccc4ccccc34)cc2CC1=O
    ., 4, -3.3, 5, ., ., ., i, 4.9
> Cc1cc(S(=O)(=O)N2CCN(c3ccccn3)CC2)ccc1F
    5, 11, 5.0, 0, ., -1.7, 0.69, i, -3.2
> CC(C)(C)NC(=O)CSc1nc(-c2ccc(F)cc2)cs1
    3, -17, -7.8, -4, -7%, -4.8, 0.67, i, 4.0
> CCC(C)NC(=O)Cn1c(=O)sc2ccccc21 (stereo not drawn)
    -1, -76, -3.6, -53, ?, -0.3, 0.69, i, -26
> O=C(NCCCNC(=O)c1c(F)cccc1F)c1c(F)cccc1F
    ., 11, -1.5, 9, 0%, 0.3, 0.68, i, 2.5
> COc1ccc2c3c(n(C)c2c1)[C@@H](CO)N(C(C)=O)CC31CN(Cc2ccc(Cl)cc2)C1
    ., -33, 6.7, -14, ., ., ., i, -1.6
> CN1C(=O)c2cc(NC(=O)c3cscn3)ccc2OC[C@H]2O[C@@H](CC(=O)N3CCCCC3)CC[C@H]21
    ., -1, 0.9, 2, ., ., ., i, 0.5
> CCC12C(=Nc3c(Cl)cccc31)C[C@@H]1CCN3C(=O)CCC[C@H]2[C@H]13 (stereo partly drawn)
    ., -40, 4.7, -29, ., -1.2, ., i, -1.0

Not all compounds are listed; rates above refer to the full screens.
